# Screening results: PubChem BioAssay, National Center for Advancing Translational Sciences (NCATS)
# miR-21 FLuc: miR-21 reporter, rising signal; Potency, µM (doses to about 38.3 µM), for the others: top-dose reporter change, positive = more light; HeLa miR-21 FLuc reporter, luciferase, 48 h; 340,000 tested, under 10 active; active = well fitted rising curve with a large enough effect; inconclusive = small, poorly fitted or top-dose-only effect; inactive = no such curve, though single readings can be large or run the other way;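 further: % of control where 0% means no effect; miR-21 action dims this reporter so a rising signal means less miR-21 action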
#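 HeLa miR-21-FLuc reporter line, endogenous miR-21; 2000 cells/well in DMEM/10% FBS; compound titration up to ~40uM final, 48 h, 37 degree Celsius; luciferase detection reagent, 15 min lysis, CCD luminescence.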
# GLA inh pH 4.5: inhibitors of human alpha-galactosidase A at pH 4.5; P06280; activity change, negative = inhibition, % at 105 µM; purified enzyme, 4-MU-alpha-Gal fluorescence, pH 4.5; AID 1467; 230,000 tested, under 10 active; inconclusive = small, poorly fitted or top-dose-only inhibition, or a rising curve; inactive = flat fitted curve, though single readings scatter; no compound was filed as active;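 further: 0% = full activity with enzyme and -100% = basal without enzyme; dose as in the result columns while the protocol names 77 µM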
# Rango dissoc inh: prevents RanGTP from dissociating the Rango-importin beta complex | Potency, µM (doses to about 46.1 µM), without a hit: at the highest dose activity change, negative = inhibition | Biochemical FRET Rango-importin beta, RanGTP-induced dissociation | 0.071% of 340,000 active; active means falling FRET ratio curve, often poorly fitted, with flat reads before Ran was added; inconclusive means other falling curves, or compound fluorescence or quenching; inactive means flat or rising ratio curve;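 further: potency means the concentration at half of the fitted maximal effect; % of control where 0% means no effect; nearly all actives have a fitted effect of over 45% in size; -100% = wells without RanGTP and RCC1; the record marks most hits as doubtful in a second field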
#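 Rango (0.1 uM)–importin beta (0.25 uM) complex; RanGTP-RCC1 trigger; 45 min RT; CFP/YFP FRET read.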
# Rango complex inh: inhibitors of Rango-importin beta complex formation. Q14974. Rango CFP/YFP FRET sensor + importin beta, 45 min. Potency, µM (titrated, usually from 92.2 µM), without a hit: top-dose inhibition of complex formation. 0.031% of 340,000 active. AID 540263; active = rising FRET ratio curve, often small or poorly fitted; inconclusive = mostly compound fluorescence or quenching in the first reads; inactive = flat curves in all reads;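 further: potency means the concentration at half of the fitted maximal effect; 0% = DMSO wells and 100% = buffer wells lacking importin beta; nearly all actives have a fitted effect of over 15% in size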
# Target sequence (Q14974 whole entry, looked up): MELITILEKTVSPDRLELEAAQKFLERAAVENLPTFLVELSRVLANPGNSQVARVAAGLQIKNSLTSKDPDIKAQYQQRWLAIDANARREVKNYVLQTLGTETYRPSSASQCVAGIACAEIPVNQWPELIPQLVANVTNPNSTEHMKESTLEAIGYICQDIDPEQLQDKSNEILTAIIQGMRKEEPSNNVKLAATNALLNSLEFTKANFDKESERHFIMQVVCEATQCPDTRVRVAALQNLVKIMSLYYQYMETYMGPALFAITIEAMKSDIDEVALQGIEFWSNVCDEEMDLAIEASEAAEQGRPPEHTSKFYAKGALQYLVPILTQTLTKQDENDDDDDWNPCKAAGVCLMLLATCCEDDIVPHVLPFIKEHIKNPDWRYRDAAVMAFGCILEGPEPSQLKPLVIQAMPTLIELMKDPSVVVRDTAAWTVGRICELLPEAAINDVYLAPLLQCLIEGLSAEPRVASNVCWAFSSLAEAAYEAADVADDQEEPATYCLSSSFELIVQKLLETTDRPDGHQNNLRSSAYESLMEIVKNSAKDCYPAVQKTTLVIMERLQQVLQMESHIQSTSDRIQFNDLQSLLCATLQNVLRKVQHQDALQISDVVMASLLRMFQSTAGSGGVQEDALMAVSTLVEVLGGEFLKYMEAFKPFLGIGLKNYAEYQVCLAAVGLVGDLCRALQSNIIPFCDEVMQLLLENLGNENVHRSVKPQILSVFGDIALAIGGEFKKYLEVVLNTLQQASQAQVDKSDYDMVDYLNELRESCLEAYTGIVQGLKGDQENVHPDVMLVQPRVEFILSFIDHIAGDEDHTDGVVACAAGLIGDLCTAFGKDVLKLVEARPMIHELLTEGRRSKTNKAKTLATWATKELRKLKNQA
#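 FRET biosensor (snurportin 1 IBB flanked by EYFP and cerulean), 50 nM, with compound 5 min, then 0.125 microM importin beta in PBS, 1 mM DTT, 0.02% Tween-20, 0.1% BSA. CFP/YFP ratio read after 45 min at room temperature; pre-read flags interference.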
# The depositor's hits bear a star; ? = inconclusive; . = not tested or not shown; & = joins results of further samples. Not all compounds are listed, so the mix of outcomes need not match the whole.
1: CCOC(=O)C1CCCN(C(=O)c2ccc3c(c2)N(C)C(=O)/C(=C/c2ccccc2Cl)S3)C1 (stereo unspecified)
2: O=C(CSc1nc2ccccc2c(=O)[nH]1)Nc1ccc([N+](=O)[O-])cc1
3: Cc1cc(N(C)Cc2ccccc2)nc(-c2ccccc2)n1
4: CC12CCC(C(=O)N(c3ccccn3)c3ccccn3)(OC1=O)C2(C)C (stereo unspecified)
5: CC(=O)Nc1cc(Cl)ccc1OS(=O)(=O)c1ccc(C)cc1
6: COc1ncc(-c2ccc3c(c2)S(=O)(=O)c2cccc(C(=O)NCc4ccco4)c2C3=O)cn1

entry no.	1	2	3	4	5	6
miR-21 FLuc	11%	.	14%	0%	-8%	.
GLA inh pH 4.5	.	.	-13	2	5	.
Rango dissoc inh	-19%	-1%	6%	-6%	-4%	-9%
Rango complex inh	-3.7%	-4.4%	-0.2%	-0.5%	1.6%	2.9%

7: Cc1cc([N+](=O)[O-])ccc1NCc1ccco1
8: CCc1nc2oc3ccccc3c(=O)c2c(=O)n1Cc1ccc(OC)cc1
9: CCC(Oc1ccccc1)C(=O)Nc1ccccc1C(=O)N1CCCCC1 (stereo unspecified)
10: COc1ccc(C(=O)NNC(=S)Nc2ccccc2)cc1
11: O=C(NC1(C(F)(F)F)C(=O)Nc2c1c(=O)[nH]c(=O)n2Cc1ccco1)C1CCCCC1 (stereo unspecified)
12: Cc1cc(=O)c2ccc3ccccc3c2[nH]1

entry no.	7	8	9	10	11	12
miR-21 FLuc	-7%	-5%	20%	-40%	-1%	19%
GLA inh pH 4.5	?	1	.	5	4	4
Rango dissoc inh	-4%	-7%	0%	9%	5%	0%
Rango complex inh	-1.9%	-1.4%	3.6%	4.1%	4.4%	-2.9%

13: CCC(CC)C(=O)NCCc1cc2c(C)ccc(C)c2[nH]c1=O
14: Cc1ccc(-c2nnc(NC(=O)C3=COCCO3)o2)c(C)c1
15: Cc1cc(-c2ccccc2)[nH]c(=O)c1S(=O)(=O)c1ccccc1
16: O=C(CNC(=S)N(Cc1ccccc1F)C1CCCCC1)NCCN1CCOCC1
17: O=C(N/N=C/c1ccccc1OC(=O)c1ccc2c(c1)OCO2)c1ccccc1
18: Cc1cc(C(=O)OCC(=O)NC(C)c2ccccc2)c(C)o1 (stereo unspecified)

entry no.	13	14	15	16	17	18
miR-21 FLuc	0%	.	9%	-2%	-40%	-3%
GLA inh pH 4.5	8	.	15	2	-6	8
Rango dissoc inh	-6%	19%	-3%	1%	24%	2%
Rango complex inh	4.8%	1.8%	1.8%	-8.6%	1.2%	-1.1%

19: O=C(Nc1cccnc1)c1ccc(F)cc1
20: Cc1onc(-c2ccccc2)c1C(=O)Nc1nnc(-c2ccncc2)s1
21: COc1ccccc1C1=NC(c2ccccc2)CN1c1ccccc1 (stereo unspecified)
22: COCCCNS(=O)(=O)c1ccc2[nH]c3c(c2c1)CCCCC3
23: CSc1ncnc2c1ncn2CC(=O)C1CCC2C3CCC4=CC(=O)CCC4(C)C3CCC12C (stereo unspecified)
24: COc1ccccc1NC(=O)CSc1nnc(CNC(=O)c2ccco2)n1C

entry no.	19	20	21	22	23	24
miR-21 FLuc	-13%	-3%	-3%	3%	.	0%
GLA inh pH 4.5	3	7	.	.	.	.
Rango dissoc inh	-9%	-2%	?	-23%	-2%	1%
Rango complex inh	0.7%	1.5%	?	?	-2.0%	-3.8%

# By substructure, those above containing a nitro group on carbon
2: O=C(CSc1nc2ccccc2c(=O)[nH]1)Nc1ccc([N+](=O)[O-])cc1
7: Cc1cc([N+](=O)[O-])ccc1NCc1ccco1

entry no.	2	7
miR-21 FLuc	.	-7%
GLA inh pH 4.5	.	?
Rango dissoc inh	-1%	-4%
Rango complex inh	-4.4%	-1.9%

# (continued)
25: CCOC(=O)C[C@H]1c2ccccc2S(=O)(=O)N1Cc1cccc(C(F)(F)F)c1
26: COc1ccccc1N1CCN(CCN2C(=O)CC3(CCCC3)CC2=O)CC1
27: CC(=O)n1cc(/C=N/NC(=O)c2ccc([N+](=O)[O-])cc2)c2ccccc21
28: CCN1CCCC1Cn1cnc2c([nH]c3ccc(C)cc32)c1=O (stereo unspecified)
29: O=C(NCc1ccco1)C(=O)c1cn(CC(=O)N2CCCCC2)c2ccccc12
30: Nn1c(SC/C=C/c2ccccc2)nnc1-c1ccco1

entry no.	25	26	27	28	29	30
miR-21 FLuc	.	.	-18%	-6%	-2%	-10%
GLA inh pH 4.5	.	-3&5	.	-9	-3	12
Rango dissoc inh	3%	21%	23%	34%	15%	14%
Rango complex inh	-3.6%	0.3%	-0.8%	-1.0%	-0.8%	2.5%

31: COc1ccc(-n2c(-c3ccccc3)cc3c2CCCC3=O)cc1
32: CCOc1ccc(NS(=O)(=O)c2ccc(C(=O)NCC(C)(C)N3CCOCC3)cc2)cc1
33: C=CCNC(=O)NC(=O)CSc1nc2cc([N+](=O)[O-])ccc2n1-c1cccc(C(F)(F)F)c1
34: CCCOC(=O)C1C2C=CC3(CN(c4ccc(Cl)c(F)c4)C(=O)C13)O2 (stereo unspecified)
35: O=C(O)c1n[nH]c2c1CC(C1CCCCC1)CC2 (stereo unspecified)
36: CCN(CC)S(=O)(=O)c1cccc(-c2nnc(SCC(N)=O)n2C)c1

entry no.	31	32	33	34	35	36
miR-21 FLuc	18%	.	-10%	-3%	.	-5%
GLA inh pH 4.5	10	.	-5	-8	.	6
Rango dissoc inh	2%	18%	-7%	-4%	17%	-1%
Rango complex inh	-1.3%	-0.7%	-1.6%	-3.8%	1.2%	1.0%

37: Cc1c(-c2nc(N)nc(Nc3ccccc3F)n2)oc2ccccc12
38: Cc1oc(-c2ccccc2)cc1C(=O)Nc1cccc(/C=C/C(=O)O)c1
39: CCCCN(C(=O)c1[nH]c(C)c(C(C)=O)c1C)c1c(N)n(CCCC)c(=O)[nH]c1=O
40: Cn1c(=O)c2ncn(CC(=O)NCCOc3ccc(C(C)(C)C)cc3)c2n(C)c1=O
41: O=C(c1cc(S(=O)(=O)N2CCN(c3ccccc3)CC2)ccc1Cl)N1CCCC(C(F)(F)F)C1 (stereo unspecified)
42: COCC(C)NS(=O)(=O)c1ccc(OC)cc1 (stereo unspecified)

entry no.	37	38	39	40	41	42
miR-21 FLuc	-48%	-20%	.	1%	.	1%
GLA inh pH 4.5	2	4	.	4	.	7
Rango dissoc inh	6%	-11%	0%	5%	0%	4%
Rango complex inh	0.8%	2.1%	6.5%	0.0%	1.5%	1.0%

43: Cc1ccc(NC(=O)C2(C)Cc3ccccc3C(=O)O2)cc1 (stereo unspecified)
44: Cc1ccc(C)c(Cn2c3ccccc3c3cnn(CC(=O)NCc4ccccn4)c(=O)c32)c1
45: Cc1cccc(C)c1NC(=O)CNC(=O)c1ccncc1
46: Nc1ccc(-c2nc3ccccc3o2)cc1
47: CCc1cc(=O)oc2cc(C)cc(OC(C)C(=O)NCc3ccncc3)c12 (stereo unspecified)
48: CCCN1CCC(NC(=O)Nc2ccccc2C(=O)OC)CC1

entry no.	43	44	45	46	47	48
miR-21 FLuc	-21%	-1%	-2%	-26%	-7%	-8%
GLA inh pH 4.5	4	.	.	.	.	7
Rango dissoc inh	-6%	-6%	0%	-1%	15%	2%
Rango complex inh	0.1%	0.7%	-2.9%	6.0%	0.4%	-3.8%

49: O=C(NC(=S)NNC(=O)[C@H]1C[C@@H]1c1ccccc1)c1ccc(F)cc1
50: Cc1ccc(/C=N/NC(=O)c2cccc(NC(=O)c3ccccc3Cl)c2)o1
51: COC(=O)Cc1[nH]nc2c1C(c1ccc(O)c(OC)c1)C(C#N)=C(N)O2 (stereo unspecified)
52: COc1ccc(S(=O)(=O)N2CCc3cc(OC)c(OC)cc3C2)cc1
53: CCCCNC(=O)c1onc(CSc2cc(C)cc(C)c2)c1C(=O)O
54: COC(=O)c1ccc(Oc2nc(NC(C)C)nc(NC(C)C)n2)cc1

entry no.	49	50	51	52	53	54
miR-21 FLuc	-5%	-9%	5%	1%	0%	-6%
GLA inh pH 4.5	-13	.	-16	1	-6	6
Rango dissoc inh	1%	8%	10%	-21%	11%	-5%
Rango complex inh	-3.1%	0.0%	?	4.0%	-0.6%	-3.2%

55: COc1ccc(O)c(/C=N/NC(=O)c2cccc(N3CCCC3=O)c2)c1
56: Cc1sc(-n2c(C)cc(/C=N/n3cnnc3)c2C)c(C#N)c1C
57: Cc1cc(C)c(C(=O)OCc2csc(CC(=O)Nc3ccccc3C)n2)c(C)c1
58: COc1cc(C(=O)C(=O)c2ccc(O)c(OC)c2)ccc1O
59: COc1ccccc1OCc1csc(N)n1
60: Cc1cccc(NC(=O)c2ccc(OCc3c(C)noc3C)cc2)c1

entry no.	55	56	57	58	59	60
miR-21 FLuc	8%	0%	7%	-36%	-9%	.
GLA inh pH 4.5	.	3	.	-15	-7	.
Rango dissoc inh	-6%	0%	0%	4%	13%	1%
Rango complex inh	-0.4%	-0.4%	?	-2.0%	-1.5%	-1.2%

# As a short view, some entries already given:
51: COC(=O)Cc1[nH]nc2c1C(c1ccc(O)c(OC)c1)C(C#N)=C(N)O2 (stereo unspecified)
52: COc1ccc(S(=O)(=O)N2CCc3cc(OC)c(OC)cc3C2)cc1
53: CCCCNC(=O)c1onc(CSc2cc(C)cc(C)c2)c1C(=O)O
54: COC(=O)c1ccc(Oc2nc(NC(C)C)nc(NC(C)C)n2)cc1
55: COc1ccc(O)c(/C=N/NC(=O)c2cccc(N3CCCC3=O)c2)c1
56: Cc1sc(-n2c(C)cc(/C=N/n3cnnc3)c2C)c(C#N)c1C
57: Cc1cc(C)c(C(=O)OCc2csc(CC(=O)Nc3ccccc3C)n2)c(C)c1

entry no.	51	52	53	54	55	56	57
miR-21 FLuc	5%	1%	0%	-6%	8%	0%	7%
GLA inh pH 4.5	-16	1	-6	6	.	3	.
Rango dissoc inh	10%	-21%	11%	-5%	-6%	0%	0%
Rango complex inh	?	4.0%	-0.6%	-3.2%	-0.4%	-0.4%	?

# (listing goes on)
61: CCC(=O)N1CCN(c2ccc(NC(=S)NC(=O)c3ccc(OC)c([N+](=O)[O-])c3)cc2)CC1
62: Cc1ccc(S(=O)(=O)NC(=O)c2ccc(Br)o2)c(C)c1
63: Cn1nc(-c2ccc(Cl)cc2)c2cc(C(=O)NCC3CCCO3)sc21 (stereo unspecified)
64: Cc1ccc(NC(=O)c2sc3nc(C)cc(C)c3c2N)cc1
65: O=S(=O)(NC1CCCCC1N1CCN(c2ccc(F)cc2)CC1)c1ccccc1 (stereo unspecified)
66: CCOC(=O)c1cc(CC)sc1/N=C/C1=C(O)CC(C)(C)CC1=O

entry no.	61	62	63	64	65	66
miR-21 FLuc	5%	-13%	12%	-42%	0%	1%
GLA inh pH 4.5	3	-7&-12	3	.	.	-4
Rango dissoc inh	14%	2%	21%	?	1%	-21%
Rango complex inh	1.2%	-0.6%	-4.0%	?	2.9%	?

67: COCCN(C(=O)c1cc(-c2ccc(F)cc2)nc2ccccc12)c1c(N)n(CC(C)C)c(=O)[nH]c1=O
68: CN1CCN(NC(=O)CSc2ccc(Cl)cc2Cl)CC1
69: N#Cc1c(C(F)(F)F)cc(C2CC2)nc1N1CCCC1
70: CCNC(=S)N/N=C1\CCCCc2ccccc21
71: CCCc1cc(=O)[nH]c(SCC(=O)Nc2sc3c(c2C#N)CCC(C)C3)n1 (stereo unspecified)
72: Cc1ccccc1CSc1nnc(-c2ccncc2)o1
73: CCN(CC(=O)NC(C)(C)C)C(=O)c1ccccc1SCC(=O)NC1CCCCCCC1
74: CCc1ccccc1NC1=NCC(=O)N1Cc1ccc2c(c1)OCO2
75: CCn1c(Cc2ccc(OC)cc2)nnc1SCC(=O)Nc1ccc(N2CCOCC2)cc1

entry no.	67	68	69	70	71	72	73	74	75
miR-21 FLuc	.	0%	0%	0%	-26%	-43%	2%	-7%	1%
GLA inh pH 4.5	.	-3	8	1	1	5	.	0	.
Rango dissoc inh	1%	-6%	-3%	10%	1%	5%	3%	0%	-6%
Rango complex inh	-0.7%	-0.7%	-1.7%	-2.2%	-0.2%	0.6%	4.7%	-2.7%	-0.3%
